Compound activity from PubChem BioAssay.
VDR inh = Inhibitors of the vitamin D receptor (VDR): qHTS; Potency, µM, inactives show max response, negative = inhibition, actives largely listed as inhibitors; Vitamin D3 receptor (Homo sapiens), P11473; VDR-SRC2-3 peptide fluorescence polarization, 2 h; 400,000 tested, 0.93% active; active means well fitted inhibition curve with a large enough effect; further: series mostly up to about 120 µM
Target sequence (P11473 whole entry, looked up): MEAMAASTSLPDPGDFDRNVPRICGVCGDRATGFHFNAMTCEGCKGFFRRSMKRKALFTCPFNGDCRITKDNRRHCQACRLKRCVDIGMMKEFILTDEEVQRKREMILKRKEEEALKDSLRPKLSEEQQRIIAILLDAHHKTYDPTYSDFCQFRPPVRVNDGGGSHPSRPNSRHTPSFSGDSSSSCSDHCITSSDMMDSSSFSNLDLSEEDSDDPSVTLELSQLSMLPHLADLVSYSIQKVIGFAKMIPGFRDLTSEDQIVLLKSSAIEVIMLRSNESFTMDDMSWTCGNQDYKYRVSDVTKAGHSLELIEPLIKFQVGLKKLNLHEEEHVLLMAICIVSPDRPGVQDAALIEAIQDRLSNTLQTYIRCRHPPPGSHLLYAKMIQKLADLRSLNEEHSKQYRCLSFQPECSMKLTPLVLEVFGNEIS
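VDR–SRC2-3 interaction, FP format. Cmpds 23 nl via pintool, brief spin, 2 h ambient incubation.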
The depositor's hits bear a star; & = joins results of further samples. On the % scale 0 is the no-effect control and ±100 the full control effect; potency means the concentration at half of the fitted maximal effect.

SMILES | VDR inh
O=S(=O)(c1cc(Cl)cc(Cl)c1O)N1CCC2(CC1)OCCO2 | -5%
COC(=O)c1ccccc1NC(=O)c1sc2nc(C)cc(C)c2c1NC(=O)c1ccccc1Cl | 2%
Cc1nc(SCC(=O)Nc2cccnc2Cl)nc(C)c1C | -9%
Cc1cccc(C(=O)OCC(=O)NNC(=O)c2cccs2)c1O | -11%
COc1ccc(-c2nc3cnc(N4CCOCC4)nc3n(Cc3cccc(OC)c3)c2=O)cc1 | 3%
CCOc1ccc(NC(=O)CSc2nnc(Cc3csc(C)n3)o2)cc1 | -1%
COc1cccc(CN2CCN(C(=O)c3cc(-c4ccccn4)nc4ccc(Cl)cc34)CC2)c1 | -2%
CCN(CC)S(=O)(=O)c1ccc(Nc2nc3ccccc3n3nnnc23)cc1 | 4%
Cc1ccc(NC(=O)n2ncc3c(C)cccc32)cc1F | 6%
COc1ccc(C2C(C(=O)OCC(=O)N3CCCCC3)CCC(=O)N2c2ccc(OC)cc2)cc1 (centres undefined) | 5%
CN1CCN(C(=O)c2cnn(-c3cccc(Cl)c3)c2C2CCN(C(=O)OC(C)(C)C)CC2)CC1 | 8%
c1ccc(Nc2nc(-c3ccccc3)ns2)cc1 | 3%
O=S(=O)(NCC1CCCO1)c1ccc(S(=O)(=O)N2CCc3ccccc3C2)cc1 (centres undefined) | 3%
O=C(NCCCNC(=O)c1ccc(-c2cccc(Cl)c2)o1)c1cnccn1 | -2%
Cc1cccc(NC(=O)Cn2c(=O)n(Cc3ccc4c(c3)OCO4)c(=O)c3oc4ccccc4c32)c1C | 19%
O=C(O)C1Cc2ccccc2CN1S(=O)(=O)c1ccc2ccccc2c1 (centres undefined) | 6%
CCCn1c(=O)c2ccccc2n2c(SC(C)C(N)=O)nnc12 (centres undefined) | -2%
CCOc1ccc(NC(=O)C2CCN(C(=O)N3CCOc4ccccc43)CC2)cc1 | -6%
COc1cccc(NC(=O)Cn2c(=O)c3cccn3c3ccc(F)cc32)c1 | 19%
CNC(=S)NNC(=O)c1sccc1C | -11%
CCC(=O)Nc1nnc(SCC(=O)NCCc2ccc(OC)c(OC)c2)s1 | 3%
CN1C(C(=O)NCc2ccccc2)CC2Cn3c(nc4cc5ccccc5cc43)C21 (centres undefined) | -11%
CCOC(=O)C1=C(CSc2nncn2C)NC(=O)NC1c1cc(OCC)ccc1OCC (centres undefined) | -13%
CCNc1ncc2nc(-c3cn(C)c4ccccc34)c(=O)n(C[C@H]3CCCO3)c2n1 | 4%
O=C(COC(=O)CNS(=O)(=O)/C=C/c1ccccc1)Nc1cc(S(=O)(=O)N2CCCCC2)ccc1Cl | -2%
COc1cc(CCC(=O)OCC(=O)Nc2c(C)cc(C)cc2C)cc(OC)c1OC | 1%
COC(=O)c1ccncc1C(=O)Nc1ccc(OC)cc1 | 0%
O=C(COC(=O)/C=C/c1ccccc1Cl)Nc1cccnc1Cl | 13%
Cc1cc(N2CCN(C)CC2)nc2ccc(NC(=O)CCC3CCCC3)cc12 | -21%
COc1ccccc1NS(=O)(=O)c1ccc(Cl)c(NC(=O)CN2C(=O)c3ccccc3C2=O)c1 | 5%
COc1cc(/C=C/C(=O)OCC(=O)NCc2ccccc2OC)ccc1O | -16%
COc1ccc(NC(=O)N2CCCC3(CCN(S(=O)(=O)c4ccccc4)CC3)C2)cc1 | 3%
COc1cccc(NC(=O)CSc2ncnc3c2cnn3Cc2ccccc2)c1 | -9%
O=C(COC(=O)c1ccc(F)cc1Cl)NC1CCS(=O)(=O)C1 (centres undefined) | -15%
O=C(CN(Cc1ccccc1)S(=O)(=O)c1cccc(C(F)(F)F)c1)NC1CCCCC1 | -22%
COc1ccccc1OCc1cc(C(=O)NCCN2CCCC(O)C2)no1 (centres undefined) | -10%
COc1ccccc1OCCC(=O)Nc1cccc(S(=O)(=O)N2CCCCC2)c1 | 0%
COCC1CCN(C(=O)C2CCC(=O)N(Cc3cccc(F)c3)C2)CC1 (centres undefined) | -3%
CCc1cc(C(=O)NCc2ccccc2)no1 | 5%
Cc1ccc(-c2nc3ccccc3c(=O)n2-c2c(C)n(C)n(-c3ccccc3)c2=O)cc1 | -1%
CCn1c(CNc2ccc(Cl)cc2)nnc1SCc1ccccc1 | -1%
Oc1ccc(Br)cc1C=Nc1ccc2c3c(cccc13)CC2 | -1%
CCOC(=O)C(C(=O)OCC)N(C#N)c1nc(N(C)C)nc(N(C)C)n1 | 4%
Cc1ccc([N+](=O)[O-])c2c1C(N1CCCCC1)C(C)(C)O2 (centres undefined) | -1%
COc1ccc(OCC(=O)NC(=S)Nc2ccc(S(=O)(=O)Nc3cc(C)on3)cc2)cc1 | -6%
CCN(CC)c1ccc(NC(=O)CN2CCN(S(=O)(=O)c3cc(Cl)ccc3OC)CC2)cc1 | 5%&4%
O=S(=O)(Nc1ccc(S(=O)(=O)N2CCOCC2)cc1)c1ccccc1 | -3%
O=C(Nc1ccccc1)c1cc2ccc3ccccc3c2s1 | -9%
CC(=O)Nc1ccc2nc(-c3ccncc3)[nH]c2c1 | -8%
COC(=O)[C@@H](Cc1c[nH]c2ccccc12)NCc1cccc(B(O)O)c1 | -6%
(more compounds)
SMILES | VDR inh
CN(C(=O)COC(=O)c1cnc(Cl)c(Cl)c1)C1CCS(=O)(=O)C1 (centres undefined) | -14%
Cc1ccc2cccc(NC(=O)COc3cc(C)c(Cl)c(C)c3)c2n1 | 15%
CCC(C(=O)OCCOCCN(CC)CC)c1ccccc1 (centres undefined) | 12%&-12%
Cc1ccc(S(=O)(=O)Nc2nsc(N)n2)cc1 | 7.1µM*
Cc1noc(Cn2c(=O)c3cc4c(cc3n(CC(=O)Nc3ccc(C(C)C)cc3)c2=O)OCO4)n1 | 2%
Cc1cc(C)cc(OC(C)C(=O)Nc2ccccc2C(=O)NCc2cccnc2)c1 (centres undefined) | -20%
Cc1ccc(NC(=O)c2ccccc2F)c(NC(=O)c2ccccc2F)c1 | 14%
O=C(CC1C(=O)NCCN1Cc1cccc(Oc2ccccc2)c1)NCCc1cscn1 (centres undefined) | -10%
CCOC(=O)c1sc(-c2ccccc2)cc1NC(=O)Nc1ccccc1 | 7%
O=C(C1CCCN(S(=O)(=O)c2cccc3nsnc23)C1)N1CCCCCC1 (centres undefined) | 4%
CCN1CCN(c2ccc(S(=O)(=O)N3CCOCC3)cc2NC(=O)c2ccc(OCC(C)C)cc2)CC1 | -1%
CC(C)CNc1ncnc2c1sc1nc(N3CCOCC3)c3c(c12)CC(C)(C)OC3 | -2%
COc1ccc(N2CCN(S(=O)(=O)Cc3ccccc3)CC2)cc1 | 5%
CCC(=O)c1ccc(OCC(=O)OC(C)C(=O)Nc2c(C)n(C)n(-c3ccccc3)c2=O)cc1 (centres undefined) | -15%
O=C(c1ccc(S(=O)(=O)N2CCCC2)cc1)N1CCN(c2ccccc2F)CC1 | -25%
O=C(Nc1ccncc1)c1cccc(F)c1 | -21%
CCCCOc1ccc(S(=O)(=O)NCc2csc(C)n2)cc1 | 4%
O=C(Nc1ccc(N2CCOCC2)cc1)C1CC(=O)N(c2ccc(F)cc2)C1 (centres undefined) | 7%
Cc1onc(-c2ccccc2Cl)c1C(=O)N1CCCC1 | -3%
Cc1ccc(NS(=O)(=O)c2cc(-c3cc(C)no3)ccc2C(C)C)nc1 | -13%

19 entries from above, with the structure last.
VDR inh | mol
-8% | CC(=O)Nc1ccc2nc(-c3ccncc3)[nH]c2c1
-6% | COC(=O)[C@@H](Cc1c[nH]c2ccccc12)NCc1cccc(B(O)O)c1
-14% | CN(C(=O)COC(=O)c1cnc(Cl)c(Cl)c1)C1CCS(=O)(=O)C1 (centres undefined)
15% | Cc1ccc2cccc(NC(=O)COc3cc(C)c(Cl)c(C)c3)c2n1
12%&-12% | CCC(C(=O)OCCOCCN(CC)CC)c1ccccc1 (centres undefined)
7.1µM* | Cc1ccc(S(=O)(=O)Nc2nsc(N)n2)cc1
2% | Cc1noc(Cn2c(=O)c3cc4c(cc3n(CC(=O)Nc3ccc(C(C)C)cc3)c2=O)OCO4)n1
-20% | Cc1cc(C)cc(OC(C)C(=O)Nc2ccccc2C(=O)NCc2cccnc2)c1 (centres undefined)
14% | Cc1ccc(NC(=O)c2ccccc2F)c(NC(=O)c2ccccc2F)c1
-10% | O=C(CC1C(=O)NCCN1Cc1cccc(Oc2ccccc2)c1)NCCc1cscn1 (centres undefined)
7% | CCOC(=O)c1sc(-c2ccccc2)cc1NC(=O)Nc1ccccc1
4% | O=C(C1CCCN(S(=O)(=O)c2cccc3nsnc23)C1)N1CCCCCC1 (centres undefined)
-1% | CCN1CCN(c2ccc(S(=O)(=O)N3CCOCC3)cc2NC(=O)c2ccc(OCC(C)C)cc2)CC1
-2% | CC(C)CNc1ncnc2c1sc1nc(N3CCOCC3)c3c(c12)CC(C)(C)OC3
5% | COc1ccc(N2CCN(S(=O)(=O)Cc3ccccc3)CC2)cc1
-15% | CCC(=O)c1ccc(OCC(=O)OC(C)C(=O)Nc2c(C)n(C)n(-c3ccccc3)c2=O)cc1 (centres undefined)
-25% | O=C(c1ccc(S(=O)(=O)N2CCCC2)cc1)N1CCN(c2ccccc2F)CC1
-21% | O=C(Nc1ccncc1)c1cccc(F)c1
4% | CCCCOc1ccc(S(=O)(=O)NCc2csc(C)n2)cc1

Additional records:
SMILES | VDR inh
CCOC(=O)C1=C(C)OC(N)=C(C#N)C1c1c(C)nn(-c2ccccc2)c1Cl (centres undefined) | 71µM*
CCOC(=O)N1CCc2c(sc3nc4n(c(=O)c23)N=C(C)CS4)C1 | -20%
CN(CC(=O)NCc1ccco1)S(=O)(=O)c1ccc(F)cc1 | -2%
COc1ccc(CNC(=O)CN(C(=O)CCC(=O)Nc2ccccn2)c2ccc3c(c2)OCO3)cc1 | -18%
O=C(Nc1ccc(F)cc1)c1cccc2c1C(=O)N(CC1CCCO1)C2 (centres undefined) | -7%
Cc1ccc(CN2C(=O)CSc3ccc(C(=O)NCCN4CCOCC4)cc32)cc1 | -16%
COc1ccc(-c2coc3c(CN4CCCCC4C)c(O)ccc3c2=O)cc1 (centres undefined) | -11%
CCOC(=O)c1c(S(=O)(=O)N2CCCCC2C)c(C)n(C)c1C (centres undefined) | -11%
COc1ccccc1NC(=O)CN1C(=O)C(C)SC(C)C1=O (centres undefined) | 18%
CC(C)(C)c1ccc(Cn2nnc3c(=O)[nH]c(C4CCCN(C(=O)c5ccco5)C4)nc32)cc1 (centres undefined) | 0%
Cc1ccc(-c2nc3n(n2)C(c2ccccc2C)C=C(c2ccc(Cl)cc2)N3)cc1 (centres undefined) | -18%
Cc1ccc(N(C(=O)C2CCCC2)C2C=CS(=O)(=O)C2)cc1 (centres undefined) | -17%
CCOCCOCN(C#N)c1nc(OC)nc(N(C)C)n1 | -3%
COc1ccccc1-c1nc(SCC(=O)Nc2ccccc2F)n[nH]1 | 3%
COc1ccc(CCNS(=O)(=O)c2cccc([N+](=O)[O-])c2)cc1 | 14%
C[C@H](NC(=O)c1nc[nH]c1C(=O)N1CCNCC1)C(=O)OCc1ccccc1 | -5%
Cc1n[nH]c(C)c1S(=O)(=O)N(CC(=O)NC(C)c1ccccc1)c1ccc(C(C)C)cc1 (centres undefined) | 1%
Cc1ccccc1NC(=O)NCCCN1CCN(C)CC1 | 11%
N#Cc1ccc(NC(=O)Cn2cnc(S(=O)(=O)N3CCCCC3)c2)cc1 | -11%
COc1cc2c(cc1NC(=O)CN(C)Cc1nc3ccccc3c(=O)[nH]1)oc1ccccc12 | -8%
O=C1C=C(NCCc2cc(Br)c(O)c(Br)c2)C(=O)c2ncccc21 | 32µM*
Cc1occc1C(=O)N1CCN(c2ccccc2)CC1 | -8%
CC(NC(=O)C1CCCCC1)C(c1cccs1)N1CCN(C)CC1 (centres undefined) | -2%
Cc1c(NC(=O)C(c2ccccc2)c2ccccc2)cccc1C(=O)O | -16%
COc1cccc(COC(=O)C2CCN(S(=O)(=O)c3ccc(C)cc3C)CC2)c1OC | -3%
N#CCSc1ccccc1NC(=O)COC(=O)Cc1c[nH]c2ccccc12 | 4%
O=C(CNC(=O)c1ccc(Cl)cc1Cl)OCc1nnc(-c2ccccc2)o1 | 15%
Cc1ccc(-c2nc(C3CCN(S(C)(=O)=O)CC3)no2)cc1 | 14%
O=C(NC1CC(=O)N(c2ccc(F)cc2)C1)c1ccc2c(c1)OCO2 (centres undefined) | 1%
CCNC(=S)NNC(=O)c1cc(C)on1 | 8%
CC(=O)Nc1ccc(OS(=O)(=O)c2ccccc2C)cc1 | -2%
CCn1c(=O)n(Cc2ccco2)c(=N)c2c3c(sc21)COC(C)(C)C3 | 7%
Cc1ccc(-c2cn3nc(N4CCCC(C(=O)NCc5ccc(F)cc5)C4)sc3n2)cc1 (centres undefined) | 12%
COc1ccccc1NC(=O)CN1CCOCC1 | 6%
COc1ccc(Cl)cc1S(=O)(=O)Nc1cccc(-c2ccc(N3CCCC3)nn2)c1 | 7%
COc1cccc2sc(Nc3nnc(-c4ccc(F)cc4)o3)nc12 | -8%
CCOC(=O)C1CCN(C(=O)Cn2cc(C(=O)c3ccco3)c3ccccc32)CC1 | 19%
Cc1ccc(OCC(=O)N/N=C\c2cn(C)c3ccccc23)c([N+](=O)[O-])c1 | 9%
CC1CCc2c(sc(NC(=O)c3cc4nc(-c5ccc(Cl)cc5)cc(C(F)(F)F)n4n3)c2C#N)C1 (centres undefined) | 5%
O=C(Nc1ccc(Oc2c(F)c(F)c(F)c(F)c2F)cc1)OC1CCN2Cc3ccccc3N=C12 (centres undefined) | -21%
O=c1c2cn[nH]c2nc(SCc2cc(=O)n3cc(Br)ccc3n2)n1-c1ccc(Br)cc1 | -6%
CC(=O)C1=C(c2ccccc2)NC(=S)NC1c1cc(Cl)c(OC(C)C)c(Cl)c1 (centres undefined) | -11%
Nc1c(C(=O)c2ccc(Cl)cc2)sc2c1c(=O)[nH]c(=O)n2-c1ccccc1 | -14%
CCc1nc2ccccc2c(C(=O)OC2CCOC2=O)c1C (centres undefined) | -2%
CCC1CCC2(CC1)NC(=O)N(CC(=O)N1CCc3ccccc31)C2=O (centres undefined) | 5%
O=C(NCC1CCCO1)c1sc2ccccc2c1Cl (centres undefined) | -17%
COc1ccc(NS(=O)(=O)c2cc(C(=O)N3CCC3)ccc2C)cc1 | -23%

An excerpt (hit frequency here may not be typical).
